Bioassay records (PubChem)
Polio RdRp inh: inhibitors of poliovirus RNA polymerase binding and polymerization | 0.66% of 150,000 active | % elongation, % (compound at 16.7 µg/mL) | poliovirus polymerase elongation, fluorescence polarization; active compounds read low; in the data active = % elongation below about 90%; note: some results filed as inactive read as strong as hits
Target sequence (P03300 1749-2209 limits assumed): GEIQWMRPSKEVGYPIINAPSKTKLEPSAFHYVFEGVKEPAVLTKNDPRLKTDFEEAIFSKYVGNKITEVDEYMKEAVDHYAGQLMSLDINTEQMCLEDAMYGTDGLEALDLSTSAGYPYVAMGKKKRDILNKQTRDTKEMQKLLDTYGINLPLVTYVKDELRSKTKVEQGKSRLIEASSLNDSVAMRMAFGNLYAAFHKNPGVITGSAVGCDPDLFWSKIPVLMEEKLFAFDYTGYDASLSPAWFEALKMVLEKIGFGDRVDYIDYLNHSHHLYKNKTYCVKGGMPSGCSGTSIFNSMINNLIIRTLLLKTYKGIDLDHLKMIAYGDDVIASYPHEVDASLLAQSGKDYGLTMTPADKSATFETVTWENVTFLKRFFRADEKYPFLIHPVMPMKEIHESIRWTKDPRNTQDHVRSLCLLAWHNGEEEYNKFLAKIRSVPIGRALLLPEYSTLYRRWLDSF
Polio RdRp inh intensity: recorded beside Polio RdRp inh, whose call it bears; % elongation; measured here: total intensity read-out; formula for this scale not given here;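 total fluorescence in place of polarization; lower means less elongation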
Starred values were filed as active, the others as inactive. Not all compounds are listed; the hit share may differ from the screen's.

Compound	Polio RdRp inh	Polio RdRp inh intensity
Cc1ccc(S(=O)(=O)Nc2cc3c(cc2NCc2ccccc2)n(C)c(=O)n3C)c(C)c1	107.0	109.0
CCCCN(C)CCNC(=O)c1c2c(nc3ccccc13)C(=O)N(C1CCCCC1)C2	107.0	114.0
CC(CNC(=O)c1ccc(CSc2nc3ccncc3n2Cc2cccc(F)c2)cc1)c1ccccc1 (configuration not stated)	114.0	114.0
CCCCOC(=O)CSc1ncnc2sc3c(c12)CCC(C)C3 (configuration not stated)	105.0	110.0
COC(=O)CSc1ncc2c(n1)-c1ccccc1N(Cc1ccccc1C)S2(=O)=O	119.0	113.0
Cc1ccc(NC(=O)Cn2cc(C(=O)c3ccco3)c3ccccc32)c(C)c1	108.0	114.0
Cc1ccc(CNC(=O)c2ccc(-c3nc(CN4CCc5ccccc54)c(C)o3)cc2)cc1	109.0	109.0
CCOC(=O)Cn1nc(C)c(NC(=O)COc2ccc(Cl)cc2C)c1C	106.0	105.0
COc1cccc(C(=O)Nc2ccc3nc4n(c(=O)c3c2)CCCCC4)c1	112.0	111.0
O=c1cc2nc(-c3ccccc3)nc(SCCOc3ccc(Cl)cc3)n2[nH]1	100.0	104.0
CN(Cc1ccccc1)S(=O)(=O)c1cc(Br)cc2c1N(C(=O)C1CC1)CC2	107.0	110.0
O=C(c1ccc(CS(=O)(=O)c2c(Cl)cccc2Cl)o1)N1CCN(c2ccccc2)CC1	106.0	109.0
COc1cc(OC)c(N(C)C(=O)c2cc3c(=O)oc4ccccc4c3s2)cc1Cl	105.0	107.0
O=C(NCC1CCCO1)c1cc(-c2cccs2)nc2ccccc12 (configuration not stated)	103.0	107.0
CCOC(=O)c1ccc(NC(=O)CC2C(=O)N(c3ccc(C)cc3)C(=O)N2C2CCCC2)cc1 (configuration not stated)	103.0	96.0
COc1ccc(CCNS(=O)(=O)c2ccc3c(c2)CC(C)N3C(=O)C2CCC2)cc1OC (configuration not stated)	109.0	111.0
COc1ccc(-n2nc3c(N4CCC(C(=O)N5CCC(C)CC5)CC4)nnc(C)c3c2C)cc1	104.0	108.0
COc1ccc(-c2noc(CNC(=O)c3ccccc3Br)n2)cc1	109.0	108.0
O=C1CC(c2ccccc2)Cc2[nH]c(=O)c(-c3nc(-c4ccc(Cl)c(Cl)c4)cs3)cc21 (configuration not stated)	111.0	122.0
COc1cc(Cl)c(S(=O)(=O)N2CCN(c3c(C)cccc3C)CC2)cc1Cl	104.0	108.0
Cc1ccc(NC(=O)CSc2ncc3c(n2)-c2ccccc2N(C)S3(=O)=O)c(Cl)c1	104.0	108.0
Cc1cccc(Cn2cc(/C=C(/C#N)C(=O)Nc3cccc(Cl)c3)c3ccccc32)c1	105.0	110.0
CCCNC(=O)Cn1c(=O)c2cccn2c2cccnc21	104.0	107.0
Cc1cc2nc(-c3ccc(Br)cc3)cc(C(F)(F)F)n2n1	108.0	108.0
CCOc1ccc(NC(=O)CSc2nccn2-c2cccc(C)c2C)cc1	107.0	94.0
O=C(COc1ccc2c3c(c(=O)oc2c1)CCC3)N1CCCC1	102.0	103.0
CCc1ccc(CNC(=O)c2ccc(NC(=O)N3CCCCc4ccccc43)cc2)cc1	107.0	115.0
CCOc1ccccc1NC(=O)Cn1cnc2onc(-c3ccc(F)cc3)c2c1=O	107.0	108.0
Cc1nn(C(C)C(=O)Nc2ccccc2C(F)(F)F)c(=O)c2c1sc1ccccc12 (configuration not stated)	111.0	101.0
COc1ccccc1CNS(=O)(=O)c1ccc2c(c1)NC(=O)CC(=O)N2	105.0	109.0
Cc1nn2c(=O)cc(COc3ccc(/C=C(\C#N)C(=O)Nc4ccccc4)cc3Cl)nc2s1	104.0	104.0
Cc1ccc(C)c(N2CCN(S(=O)(=O)c3cc(C(=O)Nc4ccc(Oc5ccccc5)cc4)ccc3F)CC2)c1	101.0	96.0
Cc1cccc(Cn2c(=O)n(Cc3ccccc3)c(=O)c3sc4ccccc4c32)c1	103.0	105.0
COc1ccccc1CNC(=O)c1ccc(CN2CC(=O)N3CCCCC3C2=O)cc1 (configuration not stated)	103.0	103.0
CCc1c(C)sc2c1CCN(C(=O)Nc1ccccc1C(F)(F)F)C2c1ccccc1 (configuration not stated)	104.0	113.0
CCN(c1ccccc1)c1ncnc2c1cnn2-c1ccc(C)cc1C	105.0	113.0
CNC(=O)C1CCC(Cn2c(=O)c3sccc3n(Cc3ccccc3)c2=O)CC1 (configuration not stated)	106.0	108.0
O=C(Cn1cc(SCc2cccc(Cl)c2)c2ccccc21)N1CCCCC1	118.0	125.0
O=[N+]([O-])c1ccc(S(=O)(=O)N2CCn3cccc3C2c2ccc(Br)cc2)cc1 (configuration not stated)	106.0	111.0
Cc1cccc(NC(=O)CN2C(=O)C3(SCC(=O)N3c3ccccc3)c3ccccc32)c1 (configuration not stated)	107.0	100.0
Cc1cc(C)cc(NC(=O)Cn2c(-c3cncs3)nc3ccccc32)c1	106.0	108.0
COc1cc(NC(=O)c2cc3nc(-c4ccccc4)cc(-c4ccccc4)n3n2)c(OC)cc1Cl	109.0	114.0
CCn1nnc2cc(C(=O)Nc3ccc(Br)cc3F)ccc21	106.0	104.0
O=C(Nc1ccc(S(=O)(=O)N2CCCCC2c2cccnc2)cc1)c1ccc(F)cc1 (configuration not stated)	112.0	108.0
CCOCCCn1c(=N)c(C(=O)NC2CCCC2)cc2c(=O)n3cccc(C)c3nc21	110.0	112.0
COc1ccc(CNC(=O)C(=O)NCC(c2cccs2)S(=O)(=O)c2ccc(F)cc2)cc1 (configuration not stated)	112.0	115.0
O=C(CCSCc1cnn(-c2ccccc2)c1-n1cccc1)NCc1ccccc1F	110.0	119.0
COc1cccc(-c2nc3c(c(SCc4ccccc4Cl)n2)Cc2c(CO)cnc(C)c2O3)c1	112.0	112.0
CCOC(=O)C1CCN(c2ncnc3c2nnn3C)CC1	96.0	101.0
CCc1cccc(C)c1NS(=O)(=O)c1ccc2c(c1)NC(=O)C(C)C(=O)N2 (configuration not stated)	100.0	91.0
CC(=O)c1ccc(NS(=O)(=O)c2ccc(-n3cccn3)cc2)cc1	105.0	103.0
Cc1ccc(NCc2cccn2-c2nnc(N3CCC(C(=O)NCc4ccc(F)cc4)CC3)s2)cc1	106.0	108.0
CCOC(=O)c1c(S(=O)(=O)N2CCC(C(=O)Nc3ccc(C)cc3C)CC2)c(C)n(C)c1C	108.0	116.0
Cc1ccc2c(c1)C(c1ccc(F)cc1)N(C(=O)c1ccc(OC(C)C)cc1)CC(=O)N2 (configuration not stated)	102.0	100.0
COc1cc(NC(=O)c2cc(C3CC3)nc3c2c(C)nn3-c2ccccc2)cc(OC)c1	109.0	114.0
COc1ccccc1C(=O)OCc1cc(=O)n2nc(C(C)C)sc2n1	101.0	105.0
COc1ccc(OC)c2sc(N(Cc3cccnc3)C(C)=O)nc12	109.0	109.0
CCOc1ccc(-c2cc(NC(=O)c3ccc(C)cc3)c(C(=O)OC)s2)cc1	109.0	110.0
COc1ccc2[nH]cc(CCNC(=O)Nc3cc(C)cc(C)c3)c2c1	111.0	102.0
COc1cc(CN(C(=O)COc2ccccc2)c2ccccn2)cc(OC)c1OC	104.0	107.0

More results follow.
Structure | Polio RdRp inh | Polio RdRp inh intensity
O=C(Nc1nnc(S(=O)(=O)N2CCc3ccccc32)s1)c1ccccc1 | 112.0 | 109.0
COc1ccc(CCNC(=O)CCCn2c(=O)c3cccn3c3ccccc32)cc1OC | 107.0 | 114.0
CCOC(=O)c1c(NC(=O)c2nc(S(C)(=O)=O)ncc2Cl)sc(C(C)=O)c1C | 113.0 | 112.0
CCCCC(Sc1nc2cc3c(cc2c(=O)n1CCCC(=O)NCc1ccc2c(c1)OCO2)OCO3)C(=O)OCC (configuration not stated) | 111.0 | 109.0
COc1cccc2c1Oc1ncccc1N(C(=O)Nc1ccc(F)c(Cl)c1)C2 | 112.0 | 98.0
Cc1ccc(C)c(OCC(=O)Nc2sc3c(c2C#N)CCCC3)c1C | 103.0 | 102.0
Cc1nn(-c2ccccc2)c2sc(C(=O)Nc3ccc(Cl)cc3Cl)cc12 | 108.0 | 111.0
O=C1CCSc2ccc(S(=O)(=O)Nc3cccc(C(F)(F)F)c3)cc2N1 | 114.0 | 116.0
CCCOc1ccc(C(=O)Nc2cccc(NC(=O)c3ccc(Cl)cc3Cl)c2)cc1 | 108.0 | 114.0
CCOC(=O)c1c(C)n(-c2ccccc2)c2ccc(OC(=O)c3cccc(OC)c3OC)cc12 | 102.0 | 103.0
Cc1ccc2nc(N3CCN(c4cccc(C)c4C)CC3)c3nncn3c2c1 | 101.0 | 105.0
Cc1c(CNC2CCCCC2)c(C(=O)O)c(C)n1Cc1cccc(Cl)c1 | 103.0 | 102.0
CCCCS(=O)(=O)c1oc(-c2cccs2)nc1S(=O)(=O)c1ccccc1 | 110.0 | 110.0
CC(NC(=O)C1(c2cccs2)CCOCC1)c1ccccc1 (configuration not stated) | 103.0 | 113.0
Cc1ccc(CNC(=O)c2ccc3c(O)c(S(=O)(=O)c4ccccc4)c(=O)[nH]c3c2)cc1 | 106.0 | 112.0
Cc1ccc(N(Cc2cccs2)C(=O)c2ccc(Br)o2)cc1 | 106.0 | 111.0
COc1ccccc1CNC(=O)C1CCC(CNS(=O)(=O)c2ccc3c(c2)CCCC(=O)N3)CC1 (configuration not stated) | 114.0 | 103.0
COc1ccc(-c2ccc(CCC(=O)O)n2CC(=O)Nc2cccc(C(F)(F)F)c2)cc1 | 102.0 | 107.0
CCNc1ccc(-c2nc(-c3ccncc3)no2)cc1[N+](=O)[O-] | 101.0 | 107.0
COc1cc(CN(C(=O)COc2ccc(Cl)cc2)c2ccccn2)cc(OC)c1OC | 105.0 | 105.0

Profiles as entered above. Order of screens: Polio RdRp inh | Polio RdRp inh intensity
Listed for CC(NC(=O)C1(c2cccs2)CCOCC1)c1ccccc1 (configuration not stated) = 103.0 | 113.0
Listed for CCNc1ccc(-c2nc(-c3ccncc3)no2)cc1[N+](=O)[O-] = 101.0 | 107.0
Listed for COc1ccc(CCNC(=O)CCCn2c(=O)c3cccn3c3ccccc32)cc1OC = 107.0 | 114.0
Listed for Cc1nn(-c2ccccc2)c2sc(C(=O)Nc3ccc(Cl)cc3Cl)cc12 = 108.0 | 111.0
Listed for CCOC(=O)c1c(NC(=O)c2nc(S(C)(=O)=O)ncc2Cl)sc(C(C)=O)c1C = 113.0 | 112.0

Further entries
Structure | Polio RdRp inh | Polio RdRp inh intensity
CCOc1ccc(N(CC)S(=O)(=O)N2CCCC(C(=O)NCc3ccc(SC)cc3)C2)cc1 (configuration not stated) | 104.0 | 105.0
COc1ccc(-c2noc(COc3cc(C)c(Br)c(C)c3)n2)cc1OC | 107.0 | 109.0
CCc1cccc(NC(=O)C2CCCN2S(=O)(=O)c2ccc3c(c2)n(C)c(=O)c(=O)n3C)c1 (configuration not stated) | 97.0 | 99.0
CCCCn1cc(S(=O)(=O)c2ccc(OC)cc2)c(=O)c2cc(F)c(N3CCCC3)cc21 | 108.0 | 110.0
COc1ccc(CCNC(=O)C(C)n2nc(C)c3sc4ccccc4c3c2=O)c(OC)c1 (configuration not stated) | 109.0 | 105.0
COc1ccc(-c2nc(CS(=O)CC(=O)NCCc3ccccc3)c(C)o2)cc1OC (configuration not stated) | 106.0 | 106.0
O=C(Nc1ccc2c(c1)OCO2)c1cc(-c2ccc(Br)cc2)on1 | 106.0 | 112.0
CCc1ccc(NC(=O)C2(c3cccs3)CCOCC2)cc1 | 102.0 | 108.0
O=C(NCc1ccccc1Cl)C1CCCN(C(=O)c2cnn(-c3ccc(F)cc3)c2-n2cccc2)C1 (configuration not stated) | 103.0 | 105.0
COc1cc(NC(=O)c2cc3ccccn3n2)cc(OC)c1OC | 106.0 | 112.0
CCOc1ccc(C2C(C(=O)Nc3ccccc3C)=C(C)Nc3nnnn32)cc1 (configuration not stated) | 105.0 | 110.0
CC(C(=O)Nc1cc(C(F)(F)F)ccc1Cl)n1nnc2sc3c(c2c1=O)CCCC3 (configuration not stated) | 101.0 | 108.0
CCOc1ccc(CNC(=O)C2CCN(C(=O)N3CC(CC)Oc4ccc(C)cc43)CC2)cc1OC (configuration not stated) | 108.0 | 108.0
CCOC(=O)c1ccc(NC(=O)CC2Sc3ccc(C(F)(F)F)cc3NC2=O)cc1 (configuration not stated) | 107.0 | 111.0
CC(C)c1ccc(C2c3c(-c4ccccc4O)n[nH]c3C(=O)N2Cc2ccncc2)cc1 (configuration not stated) | 109.0 | 108.0
Clc1cccc(-n2cc(-c3ccccc3)c3c(N4CCCCC4)ncnc32)c1 | 109.0 | 113.0
COC(=O)c1cc2occc2n1CC(=O)Nc1ccc(C)cc1Cl | 108.0 | 116.0
CCOC(=O)c1sc(N2C(=O)c3oc4ccc(F)cc4c(=O)c3C2c2ccc(O)cc2)nc1C (configuration not stated) | 104.0 | 105.0
CCCCc1nn2c(=O)cc(COC(=O)c3cccc(OC)c3)nc2s1 | 98.0 | 95.0
CCCc1cc(=O)oc2cc(C)c3c(-c4ccccc4)c(C)oc3c12 | 115.0 | 113.0
COc1ccc(OC)c(CCNC(=O)c2c(C)nn(-c3ccc(F)cc3)c2-n2cccc2)c1 | 113.0 | 114.0
COc1ccc(CNC(=O)c2cnn3c(C)c(Cc4c(F)cccc4Cl)c(C)nc23)cc1 | 113.0 | 111.0
Cc1ccccc1CNC(=O)Cn1ccc2cc(S(=O)(=O)N3CCCCC3)ccc21 | 101.0 | 97.0
CCOc1ccccc1CNC(=O)C1CCN(S(=O)(=O)c2ccc3[nH]c(=O)ccc3c2)CC1 | 110.0 | 117.0
C=Cc1ccc(Cn2c(C)c(CNCCc3cc(OC)ccc3OC)c(C(=O)O)c2C)cc1 | 104.0 | 107.0
CCOC(=O)C(CC)n1nc(C)c2c(C)n(-c3ccc(C)cc3)nc2c1=O (configuration not stated) | 107.0 | 104.0
CCCCN(CC)CCCNC(=O)C1CCCN(c2ncnc3c2nc2n3CCCCC2)C1 (configuration not stated) | 102.0 | 109.0
CCCCn1c(=N)c(C(=O)NC2CCCCC2)cc2c(=O)n3cccc(C)c3nc21 | 106.0 | 105.0
